# Bioassay records (PubChem BioAssay)
# HCMV NEC inh: cytomegalovirus nuclear egress complex inhibition; 0.15% of 190,000 active; AID 1918969; HTRF UL50-UL53 interaction, normalized percent inhibition; inhibition, % (test concentration not listed);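 active = both replicates at 50% or more, plus weaker picks with an unusually low signal ratio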;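 also: stock transfer was 100 nL into about 20 µL; 0% = negative control wells and 100% = wells with untagged competitor protein; inactives centre near -12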
# GIV-Gai inh: blocks GIV peptide binding to rat Galpha-i3. P08753. Galpha-i3/FITC-GIV peptide fluorescence polarization, 90 min; hits give low values; scaled: aluminum fluoride 0%, vehicle 100%. percent of control (FP), % (test concentration not listed). 0.42% of 210,000 active. AID 1224905;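 active = replicate mean at 85% of control or lower, very high polarization wells dropped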;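 also: wells of about 15 µL received 100 nL stock; the first replicate is given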
# Target sequence (P08753 whole entry, looked up): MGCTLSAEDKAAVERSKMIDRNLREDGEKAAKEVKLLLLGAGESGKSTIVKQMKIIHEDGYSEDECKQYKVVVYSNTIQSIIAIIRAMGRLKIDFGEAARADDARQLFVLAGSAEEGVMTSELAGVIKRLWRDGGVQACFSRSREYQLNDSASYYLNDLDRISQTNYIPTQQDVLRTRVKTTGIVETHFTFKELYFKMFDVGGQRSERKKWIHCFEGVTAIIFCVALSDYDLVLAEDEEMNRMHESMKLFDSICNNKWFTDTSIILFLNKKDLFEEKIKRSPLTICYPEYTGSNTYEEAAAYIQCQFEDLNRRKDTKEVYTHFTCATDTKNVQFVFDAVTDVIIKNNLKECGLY
# Sa growth 42C: blocks Staphylococcus aureus growth; S. aureus RN4220 growth, OD600, 20 h, 42 °C; hits give low values; relative growth, % (no concentration beside the values); 0.53% of 170,000 active;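 active = growth at 42 °C up to 50% and 20 or more points under that at 30 °C, or under 10% at both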;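 also: 300 nL library stock went into each well; scaled to the means of positive and negative controls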
# Sa growth 42C second temp: also measured in Sa growth 42C; calls as there; relative growth, %; measured here: growth at 30 °C;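 optical density after 20 h as mean of two plates; 100% = untreated growth and lower means inhibition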
# Starred values were filed as active, the others as inactive; / = no result given; & = joins results of further samples. Hits appear at their usual frequency; about 0.83% have a hit in one of these screens.
SMILES,HCMV NEC inh,GIV-Gai inh,Sa growth 42C,Sa growth 42C second temp
COc1ccccc1CNC(=O)c1oc2ccc3c(c2c1C)C(=O)CC(C)(C)O3,-27,100,107,85
O=C(NCC1CCCO1)c1ccc2c(Cl)c3c(nc2c1)CCCC3 (stereo not given),/,99,93,72
Cc1ccc2c(CN3CCNC(=O)C3)cc(=O)oc2c1C,-30,/,84,95
CCC(C)NC(=O)Cn1ncc2c(C)n(Cc3ccc(F)cc3)c(C)c2c1=O (stereo not given),-16,104,104,83
O=C(Cn1nnc(-c2cccnc2)n1)N(c1ccccc1)c1ccccc1,-26,104,93,72
CCOC(=O)c1c(C)[nH]c(C)c1S(=O)(=O)N1CCC(C(=O)NCc2ccc(N(C)C)cc2)CC1,/,104,97,88
CCc1ccc(Oc2nc3c(C)cccn3c(=O)c2/C=C(\C#N)c2nc3ccccc3[nH]2)cc1,-21,123,92,94
Cc1ccc(S(=O)(=O)N(CCC(=O)N2CCOCC2)c2ccccc2)cc1,-12,/,98,97
Cc1coc2c(C)c3oc(=O)c(CC(=O)N4CCCCC4)c(C)c3cc12,-24,103,97,87
Cc1ccc2snc(C(=O)N3CCN(S(=O)(=O)c4ccc(C)c(C)c4)CC3)c2c1,-28,104,/,/
Cc1ccc(C(=O)C(O)c2ccc(C)cc2)cc1 (stereo not given),-2,/,98,93
COc1cc(C=Nc2ccc3[nH]c(=O)[nH]c3c2)ccc1OC(C)=O,-21,99,109,77
CCn1c(=O)c2c(C(=O)Nc3ccccc3OC)cc(=O)n(CC)c2n(C)c1=O,-28,101,/,/
NC(=O)c1cccc2c1OCCO2,-14,105,90,86
CN(C)/C=C1\N=C(SCc2c(Cl)cccc2Cl)NC1=O,-11,104,107,89
COC(=O)CN1C(=O)CCSc2ccccc21,2&-15,106&102,88,85
COc1ccc(C2c3cccn3CCN2S(=O)(=O)c2ccccc2[N+](=O)[O-])cc1OC (stereo not given),/,101,102,102
CCNC(=O)COc1ccccc1Cl,-4,107,102,97
Cc1ccccc1-n1c(SCc2ccc(F)cc2Cl)nnc1-c1cc2occc2n1C,-7,101,88,90
O=C(CSCc1nc(-c2ccc(Cl)cc2)no1)Nc1nccs1,-2,99,/,/
Brc1ccc(-c2ccc(CNCc3ccc4c(c3)OCO4)o2)cc1,-24,103,/,/
O=C(NC1CCCC1)c1ccc2c(c1)N(Cc1c(F)cccc1Cl)C(=O)c1ccccc1S2,9,109,104,111
O=C(Cc1c(F)cccc1Cl)Nc1cc(C(=O)N2CCCC2)ccc1N1CC2CC(C1)c1cccc(=O)n1C2 (stereo not given),-20,100,105,84
CC1=C(c2ccc(F)cc2)S(=O)(=O)N(CC(=O)NCc2ccc(OC(C)C)cc2)C1=O,-22,100,/,/
CCc1ccc(Cn2c(CNS(=O)(=O)c3ccc(C)c(C)c3)nc3cccnc32)cc1,/,104,107,87
O=C(Nc1ccc(Cl)cc1)NC(Cc1ccc2c(c1)OCO2)Cc1ccc2c(c1)OCO2,-1,109,/,/
COc1cccc(CNC(=O)C2CCN(c3ncnc4c3sc3ncccc34)CC2)c1,7,98,/,/
COc1cc(=O)n(C)c2c(OC(C)=O)cccc12,-40,103&110,112,92
Oc1c(C(c2ccccn2)N2CCC(Cc3ccccc3)CC2)cc(Cl)c2cccnc12 (stereo not given),-18,98,/,/
O=C(NCCN1CCOCC1)Nc1ccc(Cl)cc1Cl,-5,98,106,98
COc1cccc(NC(=O)c2ccc(OC(=S)N3CCC(C)CC3)cc2)c1,-3,/,77,90
O=C(CNC1Cc2ccccc2C1)Nc1ccccc1N1CCOCC1,-31,105,91,80
CCc1c(C)sc(NC(=S)n2cc(C)cn2)c1C(=O)OC,-11,96,111,103
Cc1cccc(N2CCN(C(=O)C3CCN(S(=O)(=O)c4cccs4)CC3)CC2)c1C,-1,104,98,95
CSc1sc(/C(C)=N\O)c2c1/C(=N\O)CC(C)(C)C2,3,102,87,96
CCCc1ccc(OCCNC(=O)c2ccc3ccccc3n2)cc1,-12,/,69,91
C=CCSc1nnc(-c2ccccc2)n1-c1ccccc1,7,99,99,108
N#Cc1c(F)cccc1N1CCC(C#N)CC1,7,103,100,99
O=C(Nc1ccccc1N1CCOCC1)NC1CCN(C(=O)OCc2ccccc2)CC1,22,104,89,96
O=C1COc2cc(S(=O)(=O)N3CCC(C(=O)N4CCc5ccccc54)CC3)c(Cl)cc2N1,8,98,/,/
CCCn1c(=O)c2c(C(=O)NCC3CCCO3)cc(=O)n(CCC)c2n(C)c1=O (stereo not given),-24,101,/,/
Cc1ccc2c(=O)cc(C(=O)Nc3c(C(=O)c4ccccc4)oc4ccccc34)oc2c1,6,104,102,96
CCC(C(=O)N1CCN(c2cc(Cl)ccc2C)CC1)n1nc(C)n2c(cc3occc32)c1=O (stereo not given),2,107,110,90
CC(C)c1ccc(NC(=O)C2CC(=O)N(C3CCCC3)C2)cc1 (stereo not given),/,104,105,99
Cc1ccc(C(=O)Nc2ccc(-n3cnnn3)cc2)cc1,-31,100,/,/
Cc1cccc(NC(=O)Cn2cnc3oc(C)c(C)c3c2=O)c1C,-18,101,/,/
CC(=O)Oc1coc2ccc3c(C)cc(=O)oc3c12,-2,/,98,79
O=c1oc(-c2cccs2)ns1,-1,109,61,52
CCN(CC)CCNc1nc2c(c(=O)[nH]c(=O)n2C)n1CC(O)COc1ccc([N+](=O)[O-])cc1 (stereo not given),-35,99,/,/
O=C(c1ccccc1)N1CCN(c2ccc(F)cc2)CC1,-37,104,97,78
CCc1ccc(-n2c(=O)c3c4c(sc3n(Cc3cc(=O)n5c(C)cccc5n3)c2=O)CCC4)cc1,14,105,104,102
Cc1ccc2c(CC(=O)NC3CCCC3)coc2c1,-27,102,104,99
CCOC(=O)N=c1oc2cc(Cl)c(Cl)cc2o1,0,102,57,23
CC(C)CN1CC(O)=C(c2nc3ccccc3c(=O)[nH]2)C1=N,-17,124,/,/
COc1ccc(NC(=O)N(CCN(C)C)Cc2cc3cc(OC)ccc3[nH]c2=O)cc1,9,109,102,81
Cc1c(C(=O)N2CCN(c3ccccc3)CC2)oc2ccc3c(c12)C(O)CC1(CCCCC1)O3 (stereo not given),2,100,/,/
CCN(Cc1ccccc1)C(=O)CCN1C(=O)/C(=C/c2ccc3c(c2)OCO3)SC1=S,-29,106,/,/
CCc1ccc(-c2cc(C)no2)cc1S(=O)(=O)Nc1ccc(Cl)cc1,/,99,58,47
COc1ccccc1Oc1nc2c(C)cccn2c(=O)c1/C=C(\C#N)c1nc2ccccc2[nH]1,-28,108,87,88
CCOc1ccc(NC(=O)Cn2c(=O)n(Cc3ccccc3)c(=O)c3sc4ccccc4c32)cc1,13,108,103,90
# More results.
SMILES,HCMV NEC inh,GIV-Gai inh,Sa growth 42C,Sa growth 42C second temp
CCOC(=O)COc1ccc(CC)cc1C(=O)c1ccn2nc(-c3ccccc3)cc2n1,-12&-14,109&98,106,86
Cn1c(=O)c(=O)n(C)c2cc(NC(=O)C(C)(C)C)ccc21,2,108,95,99
N#CC(=C1CCCC1)c1nc2ccccc2s1,-41,/,137,84
Cc1c(C(=O)OC2CCCCC2=O)oc2ccc(Br)cc12 (stereo not given),5,/,105,103
Cc1nc2ccn(Cc3cccs3)c(=O)c2cc1C(=O)N1CCN(c2ccc(F)cc2)CC1,/,102,128,102
CC1=C/C(=N\Nc2ccccc2Cl)CC1,11,/,101,101
Cc1noc(C)c1COc1cc2ccccc2cc1C(=O)OCc1cc(=O)n2c(C)csc2n1,-10,/,99,92
CCCOc1ccc(C2Oc3ccc(Br)cc3C3CC(c4ccc(OC)cc4)=NN32)cc1 (stereo not given),-10,104,/,/
COc1ccc(NC(=O)N2CCN(c3nc4cc(F)ccc4n4cccc34)CC2)cc1OC,-16,99,/,/
Clc1ccc(C=NCc2cccnc2)c(Cl)c1,-4,108,114,98
Cc1cc(C)nc(SCC(=O)N(c2ccccn2)c2ccccn2)n1,-30,/,81,87
Cc1ccccc1Nc1c(-c2cccc(N(C)C)c2)nc2ccc(Br)cn12,-18,103,104,82
CCC(=O)Nc1cc2nc3[nH]c(=O)n(C)c(=O)c3nc2cc1C,-162,21*,/,/
CC1(C)CN(c2ccc(C(F)(F)F)cc2)C1=O,-6,103,/,/
O=C(CSc1nnc(Cc2cc(=O)[nH]c(=O)[nH]2)n1-c1ccccc1)N1CCCC1,6,101,115,100
CC(C(=O)NCc1cccnc1)n1cccc1C(=O)c1ccccc1 (stereo not given),3,104,92,83
O=C(CSC1=N/C(=C\c2ccc(F)cc2)C(=O)N1Cc1ccco1)N1CCCC1,-33,/,86,95
CCCCN(CCCNC(=O)c1cc(Nc2ccc(OC)cc2)nc2ccccc12)Cc1ccccc1,-24,103,99,87
Cc1nn(CCCC(=O)NCCc2ccc(Cl)cc2)c(=O)c2nn(-c3ccccc3)c(C)c12,-9,97&103,92,96
CCn1c(C(=O)N2CCC(C(=O)NCCc3ccc(OC)c(OC)c3)CC2)cc2sccc21,-10,98,88,83
COc1ccc(-c2c3c([nH]c(=O)c2C#N)-c2ccccc2CC3)cc1,-10,105,97,99
CCOC(=O)CC1Sc2ccccc2N=C1SCC(=O)Nc1ccc(Cl)cc1Cl (stereo not given),21,101,116,96
CCn1nccc1C1CCCN1S(=O)(=O)c1c(C)noc1C (stereo not given),-9,96,/,/
CCOc1ccccc1OCC(=O)O,-18,/,114,92
CCOC(=O)C1CCCN(C(=O)CS(=O)(=O)c2ccc3c(c2)S(=O)(=O)N=CN3)C1 (stereo not given),-28,108,/,/
Cc1ccc(C(=O)COC(=O)CCC(=O)Nc2ccc(Oc3cc(C)ccc3C(C)C)cc2)cc1,-39,104,111,89
CCOc1ccc2oc(=O)cc(CN3CCN(Cc4ccc(F)cc4)CC3)c2c1,7,105,80,80
Cc1nnsc1C(=O)Nc1ccc(CN2CCS(=O)(=O)CC2)cc1,-31,106,93,90
Cc1ccc(-c2nn(CCC(N)=O)c(=O)c3ccccc23)cc1,-35,107,94,88
COc1ccc(C2Nc3ccccc3C(=O)N2c2ccccc2)cc1COc1ccc(F)cc1 (stereo not given),5,104,/,/
Cc1ccccc1CCNC(=O)c1cc2cc(S(=O)(=O)N3CCCCC3)ccc2n1C,/,99,86,89
CCC(c1nnnn1Cc1ccccc1)N1CCN(c2cccc(Cl)c2)CC1 (stereo not given),-20,99,100,85
Cc1oc(-c2ccccc2)cc1C(=O)NC(C)C12CC3CC(CC(C3)C1)C2 (stereo not given),-14,/,85,84
COc1ccc(NC(=O)c2ccc(COCC(F)(F)C(F)F)cc2)cc1,-8,104,103,95
O=c1[nH]c(SCc2cc(=O)n3ccccc3n2)nc2c1CCC2,/,107,107,93
CCCCN(C)C(=O)C1CCN(c2nn3cc(-c4ccc(OC)cc4)nc3s2)CC1,/,104,98,86
CC(=O)N1C(=O)/C(=C2\SC(=S)N(C(C)C(=O)O)C2=O)c2ccccc21 (stereo not given),13,96,77,87
Cc1csc2nc(COc3cccc(NC(=O)C(C)Oc4ccccc4)c3)cc(=O)n12 (stereo not given),0,109,/,/
COc1ccc(C2CC(=O)C3=C(C2)Nc2ccccc2NC3c2ccc(C)cc2)cc1 (stereo not given),-8,99,/,/
S=c1ccc(N2CCCCCC2)n[nH]1,-84,96,/,/
